Assay outcomes (PubChem BioAssay)
VDR inh: vitamin D3 receptor (human) inhibition; 0.93% of 400,000 active; P11473; Potency, µM, for the others: max response, negative = inhibition, usual class: inhibitors; VDR-SRC2-3 peptide fluorescence polarization, 2 h; active = well fitted inhibition curve with a large enough effect; inconclusive = small, poorly fitted or top-dose-only effect, or another doubt; inactive = no such curve, though single readings can be large or run the other way; note: series mostly up to about 120 µM
Target sequence (P11473 whole entry, looked up): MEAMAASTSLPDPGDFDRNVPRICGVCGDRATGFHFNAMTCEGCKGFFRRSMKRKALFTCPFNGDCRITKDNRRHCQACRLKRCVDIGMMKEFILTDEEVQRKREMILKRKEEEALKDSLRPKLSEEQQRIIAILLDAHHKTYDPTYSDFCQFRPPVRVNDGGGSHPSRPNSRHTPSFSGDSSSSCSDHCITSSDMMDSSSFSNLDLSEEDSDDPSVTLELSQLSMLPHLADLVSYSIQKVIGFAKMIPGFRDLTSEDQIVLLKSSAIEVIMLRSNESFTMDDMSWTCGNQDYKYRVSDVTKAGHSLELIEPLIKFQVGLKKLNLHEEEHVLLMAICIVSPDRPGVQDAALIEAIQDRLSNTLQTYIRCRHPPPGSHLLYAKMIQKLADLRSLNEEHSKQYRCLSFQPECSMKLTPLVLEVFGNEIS
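After 23 nl compound addition and a short centrifugation, plates sat for 2 hours at ambient temperature; polarization of fluorescence then indicated loss of VDR binding to peptide SRC2-3.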
* hit, by the source's call; ? = inconclusive; & = joins results of further samples. % is set by controls: 0 for no effect and ±100 for the full control effect; potency is the fitted concentration of half-maximal effect. Some of the compounds tested, so the mix of outcomes need not match the whole.

VDR inh	Compound
10%	COc1cc(C(=O)OC(C)C(=O)N2CCCC2)cc2c1OCCO2 (centres undefined)
1%	Cc1cc(C)n(C(=O)c2cccc(S(=O)(=O)N3CCCC3)c2)n1
-2%	COc1cc2ccccc2cc1C(=O)Nc1cccc(-c2nc3cc(C)c(C)cc3o2)c1C
4%	O=C(CCS(=O)CCC(=O)NCc1ccccc1)NCc1ccccc1
4%	CC1(C)CN=C(N(C(=O)Nc2ccccc2)c2ccccc2F)S1
-5%	O=C(CSc1nnnn1C1CCCCC1)N1CCOCC1
-6%	COC(=O)c1ccsc1NC(=O)CS(=O)(=O)c1ccccc1
-3%	Cc1cc(NC(=O)C2CCCC2)n(-c2nc3ccccc3[nH]2)n1
?	Cc1ccc(Nc2nc(NCCO)nc3c2cnn3C)cc1Cl
2%	O=c1oc2ccccc2n1Cc1ccccc1Cl

Entries from the list above with an aryl methoxy group:
VDR inh	Compound
10%	COc1cc(C(=O)OC(C)C(=O)N2CCCC2)cc2c1OCCO2 (centres undefined)
-2%	COc1cc2ccccc2cc1C(=O)Nc1cccc(-c2nc3cc(C)c(C)cc3o2)c1C

Remaining list, next part.
VDR inh	Compound
8%	CC(C)C1CC(CCN)(Cc2ccccc2)CCO1 (centres undefined)
-1%	COc1ccc(Cc2nc3ccccc3n2Cc2ccccc2F)cc1
-11%	N/C(Cc1cccs1)=N\OC(=O)COc1ccc(Br)cc1Cl
2%	COc1ccc(OCC(O)CN2CCN(Cc3ccc4c(c3)OCO4)CC2)cc1 (centres undefined)
1%	Cc1ccsc1C(=O)NNC(=O)c1ccccc1F
?	CC1CCN(C(=S)c2ccc([N+](=O)[O-])cc2)CC1
-24%	CC(=O)N1CC=C2C(C#N)=C(N)C(C#N)(C#N)[C@H](c3ccoc3)[C@H]2C1
-18%	CCN(CC(=O)Nc1ccc(NC(C)=O)cc1)C(=O)c1ccc(COc2ccccc2)o1
-16%	Cc1cccc(N(CC(=O)N2CCCCCC2)S(C)(=O)=O)c1
6%	CS(=O)(=O)c1ccc(-c2cn3cc(C(=O)O)ccc3n2)cc1

(list continues)
VDR inh	Compound
-11%	O=C(N/N=C/c1ccccc1F)C(=O)N1CCCCCC1
-6%	Cc1cccc2c(=O)c(C(=O)NCc3ccc(F)cc3)c[nH]c12
-13%	COc1ccc([C@@H](NC(=O)OC(C)(C)C)C(=O)OC(C)(C)C)cc1
-4%	CCN(CC)CCNC(C(=O)Nc1ccc([N+](=O)[O-])cc1Br)c1ccccc1 (centres undefined)
-11%	O=Cc1cccc(OCc2cccc3ccccc23)c1
-6%	N#Cc1c(-c2ccccc2)cc(-c2ccccc2)[nH]c1=O
-12%	COc1cc2nc(C3CCC3)n(NC(=O)C3CCCC(OC)C3)c(=O)c2cc1OC (centres undefined)
-12%	Cc1cc(C)cc(Nc2nnc(-n3nc(C)cc3C)c3ccccc23)c1
-5%	Cc1cccc(C(=O)O/N=C2\CCCc3ccccc32)c1
-6%	O=C(NCc1ccco1)/C(=C\c1cccs1)NC(=O)c1ccsc1

Next structures
VDR inh	Compound
-2%	COc1ccc(C)cc1S(=O)(=O)N1CCCC(C(=O)NCC2CCCO2)C1 (centres undefined)
-7%	CC(C)OC(=O)C1CC(C)(O)C(=O)C(C(=O)OC(C)C)C1c1ccc([N+](=O)[O-])cc1 (centres undefined)
-14%	COC(=O)CCSCC(=O)Nc1ccc(S(=O)(=O)N2CCOCC2)cc1OC
-2%	Cc1cc(Cl)ccc1OCCCC(=O)N1CCN(C)CC1
3%	COCCn1c(C)cc(C(=O)CSc2nc(C)nc3sc4c(c23)CCC4)c1C
-5%	Cc1c(C(=O)N2CCN(c3ncccn3)CC2)sc2nc3n(c(=O)c12)CCCC3
7%	CC(C)N1CCN(c2ccncc2S(=O)(=O)N2CCOCC2)CC1
1%	O=C(NCCCN1CCOCC1)C(=O)NCC1OCCN1S(=O)(=O)c1ccc(F)cc1 (centres undefined)
7%	Cc1c(C)n(C)c2ccc(C(=O)NCCCN3CCN(c4ccccc4F)CC3)cc12
17%	COc1ccc(NC(=O)CCSc2cc(C)c3ccccc3n2)cc1

Following part.
VDR inh	Compound
?	Cc1ccc(NC(=O)CSc2n[nH]c(-c3ccc(F)cc3)n2)cc1F
-6%	COc1ccc(/C=C/C(=O)N2CCC(c3ccccc3)C2)cc1 (centres undefined)
-13%	COc1cc(C2NC(=S)NC(c3ccccc3)=C2C(C)=O)cc(Br)c1OCC(N)=O (centres undefined)
10%	Cc1cccc(NC(=O)Nc2ccc(Oc3c(F)c(F)c(F)c(F)c3F)cc2)c1
-5%	CC1=C(C)CC(C(=O)NCc2c(F)cccc2Cl)C(C(=O)O)C1 (centres undefined)
-6%	Cc1csc(NC(=O)C(NS(=O)(=O)c2ccc(Br)s2)c2ccccc2)n1 (centres undefined)
7%	CCC(C)c1ccccc1NS(=O)(=O)c1cnn(CC)c1 (centres undefined)
-1%	Cc1ccc(S(=O)(=O)NCC(=O)N2CCN(c3ccccn3)CC2)cc1
19%	CCOC(=O)CNC1CC(=O)N(c2cccc(Cl)c2)C1=O (centres undefined)
-15%	CCc1ccc(S(=O)(=O)Nc2nccs2)cc1

Next compounds.
VDR inh	Compound
10%	CSc1cccc(NC(=O)COc2ccccc2C)c1
21%	O=S(=O)(NCC(c1cccnc1)N1CCN(c2ccc(F)cc2)CC1)c1ccc(F)cc1 (centres undefined)
-6%	CN1C(=O)/C(=C\c2cccc(OCc3ccccc3)c2)SC1=S
7%	O=C(Cn1nc(Cl)nc1Cl)Nc1ccccc1
?	CO[C@H](C(=O)[C@@H](O)[C@@H](C)O)C1Cc2cc3cc(O[C@H]4C[C@@H](O[C@H]5C[C@@H](O)[C@H](O)[C@@H](C)O5)[C@@H](O)[C@@H](C)O4)c(C)c(O)c3c(O)c2C(=O)[C@H]1O[C@H]1C[C@@H](O[C@H]2C[C@@H](O[C@H]3C[C@](C)(O)[C@H](O)[C@@H](C)O3)[C@H](O)[C@@H](C)O2)[C@H](O)[C@@H](C)O1 (some centres undefined)
-12%	CC(=O)Nc1ccccc1OCC(=O)NCCc1ccc(Cl)cc1Cl
10%	CCc1ccc(NC(=O)CN2CCSc3ccc(S(=O)(=O)N4CCCC4)cc32)cc1
-3%	O=C(CCS(=O)(=O)c1ccc(Cl)cc1)NCCC1=CCCCC1
-4%	Cc1cc(C)cc(C(=O)NC(CC(N)=O)c2ccc(NCCN3CCCC3)c([N+](=O)[O-])c2)c1 (centres undefined)
15%	CC(C)C1C(=O)Nc2ccc(S(=O)(=O)NCCc3ccc(Cl)cc3)cc21 (centres undefined)

Further records.
VDR inh	Compound
9%	CCCCNC(C(=O)Nc1cccc(S(=O)(=O)N2CCOCC2)c1)c1ccccc1 (centres undefined)
-4%	O=C(COc1ccccc1F)OCc1cc(=O)n2nc(C3CC3)sc2n1
15%	C=CCC(C#Cc1ccc(C)cc1)N(CC)CC (centres undefined)
-6%	O=C(Cn1nnc(-c2cccs2)n1)NCc1ccco1
-4%	CS(=O)(=O)N1Cc2ccccc2CC1C(=O)OCC(=O)NCc1ccccc1 (centres undefined)
-5%	CC(CNC(=O)Cn1ccc(N)nc1=O)c1ccccc1 (centres undefined)
-2%	CCN(CC1CCCO1)C(=O)c1cc(COc2ccc(OC)cc2Cl)on1 (centres undefined)
3%	COc1ccc(NC(=O)Cn2c(NCC(C)O)nc3ccccc32)cc1Cl (centres undefined)
7%	COCCCNC(=O)c1[nH]c2ccccc2c1Sc1ccc(C)cc1
-5%	O=C(NCc1nc2ccccc2[nH]1)C1=C[C@@H](c2ccccc2)C[C@@H](OCCCCO)O1

The list goes on:
VDR inh	Compound
-10%	COc1ccc(CNC(=S)Nc2ccc3nc(N4CCN(C)CC4)cc(C)c3c2)cc1
-9%	O=C(NNC(=O)c1ccc[nH]1)Nc1cccc(C(F)(F)F)c1
7%	O=C1/C(=C\c2ccsc2)N2CCC1CC2
0%	O=C(CCc1nnc(-c2ccccc2)o1)c1ccc(Cl)cc1
-17%	COc1ccc(NC(=O)c2cc3nc(-c4ccc(Cl)c(Cl)c4)cc(C(F)(F)F)n3n2)c(OC)c1
12%	c1ccc(Cn2c(Sc3nnnn3-c3ccccc3)nnc2-c2ccccc2)cc1
6%	Cc1ccccc1NC(=O)c1ccc(-n2cncn2)nc1
4%	C=CCc1cc(Cl)ccc1OCCNCCOC
2%&-12%	O=C(Nc1cccc(Cl)c1)c1cnc[nH]1
-6%	O=C(C1CCC(=O)N1Cc1ccccc1Cl)N1CCN(c2ccc(F)cc2)CC1 (centres undefined)

Additional entries.
VDR inh	Compound
-7%	O=C(c1cnccn1)N(Cc1ccco1)C1(C(=O)NC2CCCC2)CCCCC1
-3%	CCCCn1c(N)c(N(CCOC)C(=O)CSCc2ccccc2C)c(=O)[nH]c1=O
-3%	CC(=O)Nc1nccc(-c2cc(-c3ccccc3)no2)n1
-28%	COC(=O)c1c(NC(=O)C2c3ccccc3Oc3ccccc32)sc2c1CCC(C(C)(C)C)C2 (centres undefined)
-12%&8%	COc1cccc(NC(=O)C2CCCN2S(=O)(=O)c2ccc3c(c2)C(C)(C)C(=O)N3C)c1 (centres undefined)
0%	Cc1cc(C)c(C#N)c(SCC(=O)Nc2nnc(-c3ccccc3)s2)n1
-2%	CC(C)(C)OC(=O)N1CC(O)CC1C(=O)OCC(=O)c1ccccc1 (centres undefined)
0%	CCC(C)NC(=O)CSCc1nc(-c2ccc(C)cc2)oc1C (centres undefined)
0%	c1ccc(CN(Cc2cccs2)C(c2cccs2)c2nnnn2C2CCCC2)cc1 (centres undefined)
-5%	Cc1ccc(Cn2ccc(=O)c(Cc3c(Cl)cccc3Cl)c2C)cc1

(list continues)
VDR inh	Compound
-2%	CN(C)S(=O)(=O)c1cccc(COC(=O)c2ccc(Cl)cc2O)c1
-2%	O=C(Nc1ccc(Cl)cc1)N1CCc2[nH]c3ccccc3c2C1
-20%	COC1=CC(=Cc2c(N)n3nc(CC(=O)N4CCOCC4)sc3nc2=O)C=C(OC)C1=O
4%	COc1ccc(CC(=O)N2CC3(C)CC2CC(C)(C)C3)cc1OC (centres undefined)
-1%	O=C(NC1CCCCC1)C(c1ccncc1)N(Cc1ccc(F)cc1)C(=O)c1ccccn1 (centres undefined)
1%	Cc1ccc(N2CC(C(=O)Nc3ccc4c(c3)OCCO4)CC2=O)cc1 (centres undefined)
-26%	COc1ccc(CCNc2oc(COc3ccc(Br)cc3)nc2C#N)cc1OC
-10%	Cc1cccc(NC(=O)COc2ccccc2C)n1
-8%	O=C(O)CCN1C(=O)c2ccc(Oc3ccc4c(c3)C(=O)N(CCC(=O)O)C4=O)cc2C1=O
-20%	CCN1C(=O)/C(=C\c2ccc(F)cc2)N=C1SCC(=O)NCc1ccco1

(more compounds)
VDR inh	Compound
-3%	CCCn1c(=O)c(C(=O)Nc2ccccc2C(=O)OC)c(O)c2ccccc21
15%	CC(C)C[C@H](NC(=O)[C@@H](Cc1c[nH]c2ccccc12)NC(=O)[C@H](Cc1ccc(O)cc1)NC(=O)[C@H](CO)NC(=O)[C@H](Cc1c[nH]c2ccccc12)NC(=O)[C@H](Cc1cnc[nH]1)NC(=O)[C@@H]1CCC(=O)N1)C(=O)N[C@@H](CCCN=C(N)N)C(=O)N1CCC[C@H]1C(=O)NCC(N)=O
18%	CCNC(=O)c1c(C)oc2ncn(C)c(=O)c12
-9%	O=C(O)CCCNC(=O)/C(=C\c1ccc(Cl)cc1)NC(=O)c1ccc(Br)cc1
-24%	CCOc1ccc(N2C(=O)CC(Sc3ccccc3C(=O)O)C2=O)c([N+](=O)[O-])c1 (centres undefined)
9%	COc1ccc(C(=O)/C=C(\N)C(F)(F)F)c(O)c1
-12%	Nc1ccn(C2OC(COC(=O)C34CC5CC(CC(C5)C3)C4)C(O)C2O)c(=O)n1 (centres undefined)
-13%	CC1CCN(C(=O)COC(=O)COc2ccccc2C#N)CC1
-6%	CCCCC/C(=N\NC(=O)CCC(=O)NCc1ccccc1)c1ccccc1
-7%	Cc1ccc(C(=O)CCC(=O)OCC(=O)N(CC(C)C)c2c(N)n(Cc3ccccc3)c(=O)[nH]c2=O)cc1

The results go on:
VDR inh	Compound
-13%	C#CCOCCOCCOCCNc1nc(N2CCN(C(=O)CCCCCCCCCCNC(=O)[C@@H](CCC(=O)O)n3cc(CCCCCN)nn3)CC2)nc(N2CCN(C(=O)CCCCCCCCCCNC(=O)[C@H](CO)n3cc(CCCSC)nn3)CC2)n1
11%	CCC(=O)n1nc(-c2ccccc2)nc1N
6%	c1ccc(Nc2nc(N3CCCC3)nc(N3CCCC3)n2)cc1
-7%	COc1cc2c(cc1NC(=S)NC(=O)c1c(OC)cccc1OC)oc1ccccc12
-14%	O=C(NNC(=O)c1sccc1-n1cccc1)c1ccc(F)cc1
14%	Cc1ccc(C)c(NS(=O)(=O)c2cc(C(=O)Nc3cccc(N(C)S(C)(=O)=O)c3)ccc2C)c1
-10%	O=C(C1=C(O)/C(=C/c2ccc(O)cc2)CCC1)C(F)(F)F

Structural class, the compounds so far with a thiophene ring, fused or not (12)
VDR inh	Compound
-6%	COC(=O)c1ccsc1NC(=O)CS(=O)(=O)c1ccccc1
-11%	N/C(Cc1cccs1)=N\OC(=O)COc1ccc(Br)cc1Cl
1%	Cc1ccsc1C(=O)NNC(=O)c1ccccc1F
-6%	O=C(NCc1ccco1)/C(=C\c1cccs1)NC(=O)c1ccsc1
3%	COCCn1c(C)cc(C(=O)CSc2nc(C)nc3sc4c(c23)CCC4)c1C
-5%	Cc1c(C(=O)N2CCN(c3ncccn3)CC2)sc2nc3n(c(=O)c12)CCCC3
-6%	Cc1csc(NC(=O)C(NS(=O)(=O)c2ccc(Br)s2)c2ccccc2)n1 (centres undefined)
-6%	O=C(Cn1nnc(-c2cccs2)n1)NCc1ccco1
7%	O=C1/C(=C\c2ccsc2)N2CCC1CC2
-28%	COC(=O)c1c(NC(=O)C2c3ccccc3Oc3ccccc32)sc2c1CCC(C(C)(C)C)C2 (centres undefined)
0%	c1ccc(CN(Cc2cccs2)C(c2cccs2)c2nnnn2C2CCCC2)cc1 (centres undefined)
-14%	O=C(NNC(=O)c1sccc1-n1cccc1)c1ccc(F)cc1
